Screens from PubChem BioAssay.
NS1 function inh: influenza NS1 inhibition; S. cerevisiae slowed by influenza A NS1, growth recovery by OD600; Potency, µM (highest dose often 46.1 µM), for the others: top-dose activity, positive = more growth; hit rate 0.4% among 270,000; active means well fitted rising curve with a large enough effect; inconclusive means small, poorly fitted or top-dose-only effect; inactive means no such curve, though single readings can be large or run the other way; also: nearly all actives have a fitted effect of over 50% in size
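S. cerevisiae expressing influenza A NS1, grown in glucose, washed, then diluted 1:100 into pH 6.0 -URA galactose medium with 23 nl compound. Growth recovery read as OD600; NS1-free strain serves as control.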
Cruzain inh noDet: inhibitors of Trypanosoma cruzi cruzain without detergent | AID 1476 | hit rate 2.3% among 200,000 | purified cruzain, Z-FR-AMC fluorescence, no detergent | Potency, µM, for the others: max response, negative = inhibition, usual class: inhibitors | P25779;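 also: plate controls were enzyme without inhibitor for no effect and buffer without enzyme for full effect; nearly all actives have a fitted effect of over 40% in size; top concentration of the series not given in the record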
Target sequence (P25779 123-467 limits assumed): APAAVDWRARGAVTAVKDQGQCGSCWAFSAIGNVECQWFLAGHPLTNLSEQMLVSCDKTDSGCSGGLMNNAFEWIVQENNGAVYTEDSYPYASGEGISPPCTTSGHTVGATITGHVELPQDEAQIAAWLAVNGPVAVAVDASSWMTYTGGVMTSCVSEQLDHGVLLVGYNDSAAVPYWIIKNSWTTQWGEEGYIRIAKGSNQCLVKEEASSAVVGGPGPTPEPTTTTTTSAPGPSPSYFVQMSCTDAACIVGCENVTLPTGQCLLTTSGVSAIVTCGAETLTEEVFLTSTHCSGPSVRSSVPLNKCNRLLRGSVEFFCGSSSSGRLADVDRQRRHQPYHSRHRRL
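Purified cruzain at 1.5 nM, pre-incubated 15 min with compound at room temperature in 100 mM sodium acetate pH 5.5, 5 mM DTT, 0.00005% Triton X-100. Reaction started with 2 uM Z-FR-AMC; AMC fluorescence increase over 60 s gives rate.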
RE007 growth inh: less growth of the S. pombe RE007 Vpr strain; S. pombe RE007 Vpr strain, BacTiter-Glo ATP luminescence, 24 h; control for the full effect not named in the record; Potency, µM (titrated, usually from 92.2 µM), for inactives: at the highest dose activity change, negative = less growth; AID 651644; hit rate 0.21% among 360,000; active = well fitted falling curve with a large enough effect; inconclusive = small, poorly fitted or top-dose-only effect; inactive = no such curve, though single readings can be large or run the other way;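 also: % is scaled to controls: 0 for no effect and ±100 for the full control effect; nearly all actives have a fitted effect of over 50% in size; the assay follows cell death caused by Vpr and the record does not say whether a fall means rescue or toxicity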
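Fission yeast strain RE007, carrying one chromosomally integrated HIV-1 vpr copy, was seeded at OD 0.01 in PMG+AL medium with 23 nL pinned compound. After 24 h at 30 °C and 99% humidity, viability was read by BacTiter-Glo luminescence.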
StopGo reporter: lowers the luciferase signal of an FMDV 2A StopGo reporter | human cells with a luciferase reporter of 2A StopGo recoding; control for the full effect not named in the record | Potency, µM (top dose mostly 57.9 µM), for the others: at the highest dose signal change, negative = less light | hit rate 1.2% among 410,000; active = well fitted falling curve with a large enough effect; inconclusive = small, poorly fitted or top-dose-only effect; inactive = no such curve, though single readings can be large or run the other way; tested in HEK293T cells; also: % is scaled to controls: 0 for no effect and ±100 for the full control effect; nearly all actives have a fitted effect of over 45% in size; luciferase light after 4 h
LASV entry inh: inhibitors of Lassa virus binding or cell entry. Lassa virus pseudotype entry inhibition, cell reporter; control for the full effect not named in the record. Potency, µM (top dose mostly 37.9 µM), for inactives: at the top dose activity change, negative = inhibition, most hits filed as inhibitors. hit rate 1.2% among 300,000. AID 540256; active means well fitted inhibition curve with a large enough effect; inconclusive means small, poorly fitted or top-dose-only effect, or effect the other way; inactive means flat fitted curve, though single readings scatter; tested in HEK293 cells; also: % is scaled to controls: 0 for no effect and ±100 for the full control effect; nearly all actives have a fitted effect of over 50% in size; luciferase read-out
Cruzain inh Det: blocks cruzain activity in presence of Triton detergent. AID 1478. Potency, µM, without a hit: max response, negative = inhibition, hits mostly inhibitors. P25779. purified cruzain, Z-FR-AMC fluorescence, 0.01% Triton. hit rate 0.43% among 200,000;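 also: plate controls were neutral wells for no effect and buffer without enzyme for full effect; nearly all actives have a fitted effect of over 40% in size; top concentration of the series not given in the record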
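Steps: dispense cruzain (1.5 nM final) in acetate buffer pH 5.5 with DTT and 0.01% Triton X-100; pin-transfer compounds; incubate 15 min RT; add Z-FR-AMC (2 uM final); read fluorescence every 30 s, using the 60 s intensity change.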
SARS PLP yeast: SARS-CoV PLP inhibition in yeast; S. cerevisiae expressing SARS-CoV PLpro, growth rescue; control for the full effect not named in the record; Potency, µM (titrated, usually from 32.9 µM), inactives show at the top dose activity, positive = growth rescue; hit rate 0.19% among 330,000; AID 485353; active means well fitted rising curve with a large enough effect; inconclusive means small, poorly fitted or top-dose-only effect; inactive means no such curve, though single readings can be large or run the other way; also: 0% is about no effect; nearly all actives have a fitted effect of over 55% in size; growth read by luminescence after 48 h
MARV entry inh: blocks Marburg virus binding to or entry into cells; Marburg virus pseudotyped entry inhibition, cell reporter; control for the full effect not named in the record; about a third of the inactives were read at about 46 µM; Potency, µM (top dose mostly 37.8 µM), for inactives: top-dose activity change, negative = inhibition, actives largely listed as inhibitors; hit rate 1.8% among 300,000; AID 540276; active = well fitted inhibition curve with a large enough effect; inconclusive = small, poorly fitted or top-dose-only effect, or effect the other way; inactive = flat fitted curve, though single readings scatter; tested in HEK293 cells; about a fifth of its hits are not listed in these tables; also: % is scaled to controls: 0 for no effect and ±100 for the full control effect; luciferase read-out
* marks the source's active call; other numbers are inactive results; u = inconclusive; x = no result given; & = joins results of further samples; [ ] = dose if it differs, or a comment. Unless noted, calls follow the shape of the dose curve; as a rule, active = well fitted curve in the direction sought with a large enough effect; inconclusive = small, poorly fitted or top-dose-only effect, or another doubt; inactive = no such curve, though single readings can be large; an effect the other way counts as inactive or inconclusive. Potency is read from the fitted curve at half-maximal effect.

SMILES	NS1 function inh	Cruzain inh noDet	RE007 growth inh	StopGo reporter	LASV entry inh	Cruzain inh Det	SARS PLP yeast	MARV entry inh
Cc1nc(NC(=O)COC(=O)CCC(=O)c2cccs2)c(Cl)cc1Cl	5%	-3%	4%	12%	-3%	-6.5%	20%	4%
O=C(CCN1CCN(Cc2ccccc2)CC1)Nc1cccc(Cl)c1	-6%	6%	1%	0%	3%	2.6%	-1%	u
c1ccc(CN(Cc2ccccc2)c2c3c(nc4ncnn24)CCC3)cc1	-5%	x	-8%	-35%	x	x	-4%	x
CC(C)(C)C1CCC(OC(=O)c2cncc(Br)c2)CC1 (configuration not stated)	x	x	-18%	-17%	1%[46.1 µM]	x	0%	12%[46.1 µM]
CCc1ccc(CN(C)C(=O)CCc2nnc(-c3ccc(-c4ccccc4)cc3)o2)nc1	-2%	x	-3%	-26%	x	x	-2%	x
CCOCCc1c(O)nc(SCCOc2ccc(C)c(C)c2)[nH]c1=O	2%	x	-6%	-7%	-5%	x	0%	10%[46.1 µM]
COc1ccc(OC)c(-c2cc(C(=O)Nc3cc(C)on3)no2)c1	-4%	4%	11%	-15%	u	-1.6%	0%	-28%
COc1ccccc1CNC(=O)CCS(=O)(=O)c1ccc2c(c1)CCN2C(C)=O	-5%	x	-1%	39%&4%[activator]	-13%&-2%[46.1 µM]	x	-2%	u
Cc1sc2c(c1C)c(=O)n(-c1ccccc1)c1nnc(C)n21	1%	-8%	8%	x	u	-2.7%	4%	2%
CC(C)NC(=O)c1c(CSc2ccccc2)noc1C(=O)NCc1ccccc1	-7%	x	21%	0%	x	x	1%	x
Cc1ccc(-n2cc(CNCCc3cscn3)c(-c3ccc(F)cc3)n2)cc1	3%	x	-15%	-7%	u	x	0%	13µM*
Cc1ccc2onc(CNC(=O)N3CCN(c4cc(Cl)ccc4C)CC3)c2c1	x	6%	x	-2%	-19%[46.1 µM]	-6.9%	x	x

The last 4 records of the section above come first, to join the parts.
SMILES	NS1 function inh	Cruzain inh noDet	RE007 growth inh	StopGo reporter	LASV entry inh	Cruzain inh Det	SARS PLP yeast	MARV entry inh
Cc1sc2c(c1C)c(=O)n(-c1ccccc1)c1nnc(C)n21	1%	-8%	8%	x	u	-2.7%	4%	2%
CC(C)NC(=O)c1c(CSc2ccccc2)noc1C(=O)NCc1ccccc1	-7%	x	21%	0%	x	x	1%	x
Cc1ccc(-n2cc(CNCCc3cscn3)c(-c3ccc(F)cc3)n2)cc1	3%	x	-15%	-7%	u	x	0%	13µM*
Cc1ccc2onc(CNC(=O)N3CCN(c4cc(Cl)ccc4C)CC3)c2c1	x	6%	x	-2%	-19%[46.1 µM]	-6.9%	x	x
CNC(=O)CN(c1cccc(Br)c1)S(C)(=O)=O	14%	5%	-8%	1%	-13%	7.9%	7%	1%[46.1 µM]
COCCNC(=O)NC(=O)CN1C(=O)NC(Cc2c[nH]c3ccccc23)C1=O (configuration not stated)	-3%	x	14%	-4%	5%	x	-2%	-4%[46.1 µM]
O=C(O)c1c2c(nc3ccc(S(=O)(=O)N4CCC(C(=O)N5CCCCC5)CC4)cc13)CCCC2	8%	-11%	11%	-14%	x	-1.4%	7%	-3%
CN(c1cccc(Cl)c1)S(=O)(=O)c1cccc(C(=O)Nc2nc3ccccc3[nH]2)c1	30%	u	5%	13µM*	u	-6.9%	-9%	22µM*
CCOC(=O)C1(Cc2cccc(Cl)c2)CCCN(C(=O)c2cnn(CC)c2)C1 (configuration not stated)	-9%	x	-7%	5%	-3%	x	-1%	-13%
CCN(Cc1ccncc1)C(=O)CCc1nnc(CCC2CCCCC2)o1	1%	x	-25%	10%	6%[46.1 µM]	x	-1%	1%[46.1 µM]
O=C(c1ccc2oc(CCCc3ccccc3)nc2c1)N1CCCC1	-34%	x	16%	50%[activator]	u	x	2%	-8%
O=C(NCc1ccco1)C(Cc1ccccc1)N1C(=O)C2C3C=CC(C3)C2C1=O (configuration not stated)	0%	-30%	-11%	-4%	10%	25µM*	4%	u
CCOc1ccc(S(=O)(=O)NCc2ccco2)c2ccccc12	-20%	-4%	8%	114%[activator]	9%	-11%	-2%	20%
CC(Sc1ccccc1)C(=O)NN=C1CCCCCCC1 (configuration not stated)	x	x	9%	8%	10%	x	u	17%[46.1 µM]
CCc1ccc(NC(=O)[C@H](Cc2ccccc2)NC(=O)C2CCN(C(=O)[C@@H](N)CC(C)C)CC2)cc1	20%	x	-1%	-6%	x	x	10%	x
N/C(=N\OC(=O)CCC1CCCCC1)c1cccnc1	-1%	-6%	15%	41%[activator]	22%	0.3%	-20%	16%
CC(NC(=O)Nc1nccs1)(C(F)(F)F)C(F)(F)F	5%	-29%	-11%	-9%	3%	-0.6%	-8%	-26%
Cc1ccc(C)c(Cn2nc3c4ccccc4n(Cc4ccccc4)cc-3c2=O)c1	2%	x	11%	-7%	-13%[46.1 µM]	x	2%	-27%[46.1 µM]
CCCCC(=O)NC1(C(F)(F)F)C(=O)Nc2c1c(=O)[nH]c(=O)n2-c1ccc(F)cc1 (configuration not stated)	x	6%	x	3%	9%[46.1 µM]	0.1%	x	x
CN(C)/C=C/C(=O)c1ccc(C(F)(F)F)cc1F	4%	x	10%	32%[activator]	16%	x	0%	14%
CC(C)NCC(O)(c1ccc(Cl)cc1)c1ccc(Cl)cc1	x	x	4%	-10%	-12%[46.1 µM]	x	1%	u
C=CCOc1ccc(C2/C(=C(\O)c3ccc(F)cc3)C(=O)C(=O)N2CCCN(C)C)cc1 (configuration not stated)	3%	-8%	4%	1%	15%	-2.4%	-5%	21%
CCOC(=O)c1c(S(=O)(=O)N2CCC(C(=O)NCc3ccccc3OC)CC2)c(C)n(C)c1C	x	u	x	-7%	-1%[46.1 µM]	1.4%	x	x
O=C(CCc1ccccc1)Nc1c(F)c(F)c(F)c(F)c1F	-1%	-3%	-21%	-25%	-1%	-3.2%	-7%	14%
O=C(CSCC(=O)Nc1nccs1)Nc1ccccc1	3%	16%	-24%	-20%	-3%	3.7%	3%	2%
COc1ccccc1NC(=O)c1ccc(NC(=O)CN2C(=O)CN(C)C2=O)cc1	1%	x	-5%	-3%	-2%	x	2%	u
Cc1ccc(C(=O)Nc2ccc3oc(-c4cc(Br)ccc4Cl)nc3c2)cc1	x	6%	x	-4%	6%[46.1 µM]	-2.3%	x	x
CCC(=O)N1CCN(c2ccccc2NC(=O)COc2cc(C)ccc2C(C)C)CC1	-9%	u	6%	x	u	-15%	-17%	u
Cc1ccc2cc(CN(CCCN(C)C)C(=S)NCc3ccccc3)c(=O)[nH]c2c1C	-3%	x	2%	-15%	-24%	x	-1%	-8%[46.1 µM]
Cn1c(CNC(=O)c2ccc(F)cc2)cc2ccccc21	25%	x	0%	2%	x	x	-10%	x
Cc1ccc2ccccc2[n+]1CCCS(=O)(=O)[O-]	-1%	6%	-12%	22%	8%	8.2%	6%	26%[46.1 µM]
O=C(Nc1ccc2nc3n(c(=O)c2c1)CCCCC3)c1c(F)ccc([N+](=O)[O-])c1F	-25%	x	-5%	10µM*	u	x	-2%	7.1µM*
CC(C)CCOc1ccc(C(=O)NCCC(=O)N2CCOCC2)cc1	4%	2%	1%	1%	29%	2.0%	1%	22%
CCOC(=O)C(CC)/C(C)=N\NC(=O)c1cccc(C)c1 (configuration not stated)	-2%	x	-8%	7%	x	x	-3%	x
CC(=O)c1cccc(NC(=O)COC(=O)CCC(=O)c2ccc(F)cc2)c1	x	x	20%	3%	6%	x	-1%	0%
O=C(OCc1ccc(Cl)cc1Cl)c1cccnc1Cl	-47%	-8%	-14%	1%	2%	-3.8%	-16%	0%[46.1 µM]
COc1cccc(CNCCSc2nnnn2C)c1OCc1ccc(Cl)cc1Cl	x	12%	x	-28%	u	-2.1%	x	u
CSc1ccc(C(=O)C2CCCN(C(=O)c3cccc(N4CCOCC4)c3)C2)cc1 (configuration not stated)	-33%	x	2%	9%	-17%[46.1 µM]	x	-5%	-15%[46.1 µM]
CNC(=O)c1[nH]cnc1C(=O)N[C@@H](C)C(=O)OCc1ccccc1	1%	x	19%	-27%	x	x	-1%	x
COc1ccc(Cc2nc3ccc(C(=O)NC(C)Cc4ncccc4C)cc3o2)cc1OC (configuration not stated)	-22%	x	0%	u	u	x	-1%	u
CCc1cc(=O)oc2cc(OC(=O)CN3C(=O)NC4(CCCC4)C3=O)ccc12	-11%	x	-13%	-6%	-17%	x	-2%	14%
Cc1ccc(C)n1-c1c(C(=O)NN)cnn1-c1ccccc1	x	x	0%	-17%	-20%	x	2%	-22%[46.1 µM]
CCCn1c(CNC(=O)c2ccc(F)cc2)nc2ccccc21	x	-6%	x	-10%	11%[46.1 µM]	-13%	x	u
O=C(COc1ccccc1F)Nc1nnc(C2CCCC2)s1	-14%	x	-10%	6%	x	x	-6%	x
COC(=O)C1CCN(S(=O)(=O)c2cc3c4c(c2)CC(=O)N4CCC3)CC1	x	u	x	-10%	-9%[46.1 µM]	-1.5%	x	x
CCCCOc1ccc(C(=O)N/C(=C/C=C/c2ccccc2)C(=O)O)cc1	3%	x	7%	-12%	14%[46.1 µM]	x	1%	13%[46.1 µM]
CN1C[C@@H]2C(c3ccc(C(F)(F)F)cc3)C3(c4cccnc4)CC2(C3)[C@H]1c1ccccc1 (some centres not stated)	-17%	-5%	8%	-27%	x	4.0%	1%	x
NS(=O)(=O)c1ccc(CCNC(=O)CNC(=O)Cc2cccc3ccccc23)cc1	4%	x	-6%	4%	x	x	0%	x
Clc1cc(Cl)c(OCc2nc(-c3ccccn3)no2)cc1Cl	5%	13%	0%	25%	u	-11%	-1%	u
